Assay outcomes deposited in PubChem by ICCB-Longwood Screening Facility, Harvard Medical School.
Sa growth inh: S. aureus growth inhibition. 170,000 tested, 0.53% active. relative growth, % (concentration not given with the values). S. aureus RN4220 growth, OD600, 20 h, 42 °C; stronger effect = lower value;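 active = growth at 42 °C up to 50% and 20 or more points under that at 30 °C, or under 10% at both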;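 note: 300 nL library stock went into each well; scaled to the means of positive and negative controls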
HCMV UL50-53 inh: cytomegalovirus nuclear egress complex inhibition; HTRF UL50-UL53 interaction, normalized percent inhibition; inhibition, % (no concentration beside the values); 190,000 tested, 0.15% active;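 active = both replicates at 50% or more, plus weaker picks with an unusually low signal ratio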;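 note: stock transfer was 100 nL into about 20 µL; 0% = negative control wells and 100% = wells with untagged competitor protein; inactives centre near -12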
GIV Gai3 FP: GIV-Galpha-i interaction inhibition. percent of control (FP), % (concentration not given with the values). P08753. Galpha-i3/FITC-GIV peptide fluorescence polarization, 90 min; stronger effect = lower value; scaled: aluminum fluoride 0%, vehicle 100%. 210,000 tested, 0.42% active;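 active = replicate mean at 85% of control or lower, very high polarization wells dropped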;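 note: wells of about 15 µL received 100 nL stock; the first replicate is given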
Sa growth inh second temp: second read-out of Sa growth inh, no call of its own (marks repeat the call); relative growth, %; measured here: growth at 30 °C;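 optical density after 20 h as mean of two plates; 100% = untreated growth and lower means inhibition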
* = called active by the depositor; & = joins results of further samples. Not all compounds are listed (hit frequency here may not be typical).

Screening CC[C@@H]1C(=O)OC[C@@H]1Cc1cncn1C returned Sa growth inh 94&98, HCMV UL50-53 inh 7&3&-8&2&-6, GIV Gai3 FP 103&98 and Sa growth inh second temp 96&101.
